VDR inh = blocks the human vitamin D receptor. VDR-SRC2-3 peptide fluorescence polarization, 2 h. P11473. Potency, µM, for inactives: max response, negative = inhibition, hits mostly inhibitors. actives 0.93% (n = 400,000); active = well fitted inhibition curve with a large enough effect; inconclusive = small, poorly fitted or top-dose-only effect, or another doubt; inactive = no such curve, though single readings can be large or run the other way; note: series mostly up to about 120 µM
Target sequence (P11473 whole entry, looked up): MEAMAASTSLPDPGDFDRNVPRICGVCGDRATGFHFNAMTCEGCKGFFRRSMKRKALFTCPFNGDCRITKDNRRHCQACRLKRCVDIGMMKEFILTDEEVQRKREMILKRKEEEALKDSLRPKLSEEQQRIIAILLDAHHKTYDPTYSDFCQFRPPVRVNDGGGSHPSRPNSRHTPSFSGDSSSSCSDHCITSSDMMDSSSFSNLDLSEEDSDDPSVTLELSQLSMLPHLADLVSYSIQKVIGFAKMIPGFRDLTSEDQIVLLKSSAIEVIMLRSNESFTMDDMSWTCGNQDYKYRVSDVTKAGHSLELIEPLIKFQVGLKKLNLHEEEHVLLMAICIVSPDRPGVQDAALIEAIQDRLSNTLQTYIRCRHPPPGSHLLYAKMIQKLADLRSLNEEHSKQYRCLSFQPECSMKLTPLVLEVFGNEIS
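Fluorescence polarization assay measuring small-molecule disruption of VDR binding to the coregulator peptide SRC2-3. Compounds were pin-transferred (23 nl) into the reagent mix and incubated 2 h at room temperature before reading.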
* = called active by the depositor; u = inconclusive; [ ] = dose if it differs, or a comment. % is set by controls: 0 for no effect and ±100 for the full control effect; potency is the fitted concentration of half-maximal effect. A portion of the library; the hit share may differ from the screen's.

Molecule	VDR inh
O=C(COc1ccc(-n2cnnn2)cc1)Nc1cc(Cl)cc(Cl)c1	1.0%
CCc1ccc(NC(=O)CC2C(=O)N(c3ccccc3)C(=O)N2C(C)C)cc1 (stereo not drawn)	-2.1%
Cc1cc(/C=N/NC(N)=O)c(C)c(CO)c1	9.4%
CCOc1ccc(C(=O)Nc2ccc(CN3CCOCC3)cc2)cc1Br	-10.1%
Cc1ccc(/C(N)=N/OC(=O)c2ccc(C)cc2Cl)cc1	-1.0%
O=C(N/N=C/c1cccnc1)C(O)c1ccccc1 (stereo not drawn)	7.9%
COc1ccc2nccc(C(=O)O)c2c1	2.3%
CCC1CCCCN1CCNC(=O)CCS(=O)(=O)c1ccc(Br)cc1 (stereo not drawn)	3.1%
Cc1ccc(C(=O)NNC(=O)C2CC2)cc1Br	4.5%
Cc1cccc(OS(=O)(=O)NC(=O)OCC2CCCN3CCCCC23)c1 (stereo not drawn)	0.0%
CCCCN(CC)C(=O)Cn1nc(C)c2c(C)n(-c3ccccc3)nc2c1=O	6.5%
Cc1cccc(CNC(=O)c2ccc(Cn3c(SCc4cccc(F)c4)nc4cccnc43)cc2)c1	7.2%
COC(=O)C1=C(NC(=O)CCCCl)CCS1	-19.3%
O=C(NC(Cc1ccccc1)C(=O)N1CCc2ccccc2C1)c1ccccc1 (stereo not drawn)	21.0%
COc1cc(OC)cc(-c2nnc(SCc3ccc(C(=O)O)cc3)o2)c1	u
CC(NC(=O)C1CC1)C(c1cccs1)N1CCN(c2ccccc2)CC1 (stereo not drawn)	-3.2%
COc1ccc(OCCCC(=O)N(CCC2=CCCCC2)c2c(N)n(Cc3ccccc3)c(=O)[nH]c2=O)cc1	0.6%
COc1ccc(/C=C2\SC(=O)N(CCC(=O)N3CCN(C)CC3)C2=O)cc1	-1.8%
CC1CC(C)CN(CCOc2ccc(Br)cc2)C1 (stereo not drawn)	9.6%
COc1cc(NC(=S)NC(=O)c2ccc(C(C)(C)C)cc2)ccc1NC(=O)c1cccs1	-11.8%
CC(NC(=O)CNC(=O)C1CCCCC1)c1cccc(Cl)c1 (stereo not drawn)	-8.1%
Cc1ccc(NC(=O)CSCC(=O)Nc2cc(S(=O)(=O)N3CCOCC3)ccc2OC(C)C)cc1	-10.0%
Cc1ccc(S(=O)(=O)Nc2ccc(Cl)cc2)cc1NC(=O)c1cc2c(s1)CCCC2	-6.7%
Nc1cc([N+](=O)[O-])ccc1N1C(=O)CCCC1=O	-13.5%
CCC(=O)Nc1cc(C(=O)OCC(=O)c2ccccc2Cl)ccc1C	-7.9%
COc1cc(OC)c2nc(C)c3c(c2c1)N(c1ccc(O)cc1)CC3	12.1%
CC1=C(C(=O)OC(C)C)C(c2cccnc2)n2ncnc2N1 (stereo not drawn)	-17.8%
CC(=O)c1ccc(N=Nc2ccc(N(C)C)cc2)cc1	14.3%
O=C(N/N=C\C=C\c1ccc2c(c1)OCO2)c1cccnc1	3.8%
CCOC(=O)c1cc(-c2ccc(OC)cc2)n(CCC(=O)Nc2cccc(C(C)=O)c2)c1C	0.9%

In a second layout: entries from further up
Cc1ccc(/C(N)=N/OC(=O)c2ccc(C)cc2Cl)cc1
  VDR inh = -1.0%
Cc1cccc(CNC(=O)c2ccc(Cn3c(SCc4cccc(F)c4)nc4cccnc43)cc2)c1
  VDR inh = 7.2%
O=C(N/N=C/c1cccnc1)C(O)c1ccccc1 (stereo not drawn)
  VDR inh = 7.9%
Nc1cc([N+](=O)[O-])ccc1N1C(=O)CCCC1=O
  VDR inh = -13.5%

(more compounds)
Molecule	VDR inh
COc1ccccc1Cn1c(=S)[nH]c2cc(C(=O)NCc3cccnc3)ccc2c1=O	-7.6%
COc1ccccc1NC(=O)C/C(C)=N/NC(=O)c1ccccn1	-18.5%
COc1cccc([C@@H]2Oc3ccc(OC)cc3C(=O)[C@H]2OC(=O)NCc2ccc3c(c2)OCO3)c1	0.7%
CN(C)/C=C/C(=O)c1cccc(Cl)c1	-4.3%
COc1ccc(N2CCN(c3ncnc4c3cnn4-c3ccc(C)c(Cl)c3)CC2)cc1	8.5%
CN(C)S(=O)(=O)n1cc(/C=C(\NC(=O)c2ccccc2F)C(=O)N2CCOCC2)c2ccccc21	u
CCOc1ccccc1NC(=O)CSc1nc2cc(OC)c(OC)cc2c2nc(-c3ccccc3)nn12	u
N#Cc1ccccc1S(=O)(=O)N1CCN(S(=O)(=O)c2ccc(Br)c(C(=O)O)c2)CC1	-17.9%
COC(=O)c1ccccc1NC(=O)C1CCCN(C(=O)c2cnn(-c3ccc(F)cc3)c2-n2cccc2)C1 (stereo not drawn)	-4.9%
CN(C(=O)c1cccc(NC(=O)Cc2ccc(NC(=O)C3CCCN(C(=O)c4ccccc4)C3)cc2)c1)C1CCC1 (stereo not drawn)	9.8%
COC(=O)c1scc(-c2ccc(C)cc2)c1S(=O)(=O)Nc1cc(Cl)c(OC)cc1OC	4.5%
Cc1ccccc1CSCC(=O)N/N=C/c1cccs1	7.0%
CC(C)c1ccccc1NC(=O)COC(=O)c1cc([N+](=O)[O-])ccc1N1CCOCC1	-5.6%
Cc1nc(N2CCN(C)CC2)c2c(C)c(C(=O)Nc3ccc(F)cc3)sc2n1	-13.8%
COc1cc(/C=N/NC(=S)NCCN2CCOCC2)ccc1O	-8.0%
CCCCC(=Nc1ccccc1OC)C1=C(O)CC(c2ccccc2)CC1=O (stereo not drawn)	-4.9%
S=c1[nH]ncn1/N=C/c1ccc(Br)cc1	4.1%
O=C(c1ccc2nc(N3CCOCC3)sc2c1)N1CCC(Cc2ccccc2)CC1	-18.7%
O=C(c1ccccc1-c1ccccc1)N1CCOCC1	-3.4%
c1ccc(CSc2nnc(-c3ccco3)n2Cc2ccccc2)cc1	8.5%
Cc1cc(Cc2ccc([N+](=O)[O-])cc2)c(C)cn1	-0.1%
Cc1ccc(-c2nc3ncccc3o2)cc1N	-16.7%
CC1(c2ccc3noc(-c4ccccc4)c3c2)OCCO1	5.8%
Cc1cc(C)n(Cc2ccc(Cl)c(Cl)c2)c(=O)c1S(=O)(=O)c1ccccc1	-21.1%
COc1ccc(NC(=O)c2cc(-c3ccc(C)cc3)on2)cc1OC	7.3%
CO/N=C(/CNC(=O)c1ccc(Cl)cc1Cl)c1ccc(Cl)cc1	-17.9%
Cc1onc(-c2ccccc2Cl)c1C(=O)Nc1sc2c(c1C#N)CCC2	-11.0%
COc1cc(C2NC(=O)NC(c3ccccc3)=C2C(C)=O)c(Br)cc1OCC(N)=O (stereo not drawn)	-15.5%
CCCc1cc(=O)[nH]c(Nc2ccc(C(=O)O)cc2)n1	-5.6%
Cc1cc(=O)[nH]c(SCC(=O)N2CCC(C(N)=O)CC2)n1	15.8%
OCCOc1ccc(C2=NCCO2)cc1	1.1%
CCC(C)(C)c1ccc(CC(C)CN2C[C@@H](C)O[C@@H](C)C2)cc1 (stereo partly drawn)	-6.6%
COc1ccc(NC(=O)NS(=O)(=O)c2ccc(C)cc2)cc1OC	0.6%
COC(=O)C1SCC2C(=O)N(Cc3ccc(Cl)c(Cl)c3)CC(=O)N21 (stereo not drawn)	u
O=C(NCCc1csc(-c2ccc(Cl)cc2)n1)c1cccs1	6.4%
O=C(CSc1nnc(CNC(=O)c2ccccc2F)o1)NCC1CCCO1 (stereo not drawn)	5.4%
CCC(C)(C(=O)Nc1ccccc1C)N(C(=O)CNC(C)=O)c1ccccc1C (stereo not drawn)	8.2%
Cc1ccc(Nc2c(-c3ccc(N4CCOCC4)cc3)nc3ccc(Cl)cn23)cc1	-20.9%
CCOC(=O)C(Cc1ccccc1)c1ccnc2nc(N)nn12 (stereo not drawn)	5.7%
Cc1nn(C(C)(C)C)c(OC(=O)CC(C)C)c1S(=O)(=O)c1ccccc1	29.1%
CC(C)(C)OC(=O)N1CCCC1C(=O)NC1COC2CC(n3ccc(=O)[nH]c3=O)OC12 (stereo not drawn)	-10.5%
COc1ccc(CCNC(=O)Cn2c(=O)cc(C(F)(F)F)c3c(C)nn(C)c32)c(OC)c1	12.3%
COc1cc(C(=O)N(C)C2CCCN(Cc3ccccc3F)C2)cc(OC)c1OC (stereo not drawn)	-3.6%
CCOC(=O)c1nc(NCc2ccccc2F)c2ccccc2n1	-7.4%
CCOC(=O)C1CC2CC(C1)CN(C(=O)C1CCCCC1)C2 (stereo not drawn)	-16.6%
CC(OC(=O)c1cccnc1Cl)C(=O)NCc1ccccc1 (stereo not drawn)	-0.1%
CCCCC(=O)Nc1nnc(S(=O)(=O)N(C)Cc2ccco2)s1	-23.3%
CCn1c(=O)c(=O)[nH]c2cc(C(=O)N3CCN(c4ccccc4F)CC3)ccc21	9.7%
CC(=O)Nc1sc(N)nc1-c1ccccc1	0.5%
CSc1nsc2nc(=O)c(/C=C3\C=Nc4ccccc43)c(N)n12	-16.0%
O=C1OC(c2ccc(Br)cc2)=N/C1=C\c1ccco1	23.9%
N#Cc1c(/N=C/c2ccc(-c3ccc(C(=O)O)c(Cl)c3)o2)sc2c1CCCC2	-20.7%
Cc1ccc(NC(=O)CC2NCCNC2=O)cc1 (stereo not drawn)	10.5%
O=C1CC(c2ccccc2)c2ccccc21 (stereo not drawn)	-11.5%
CCc1ccc2c(c1)c1nc(C)sc1n2CC	u
O=C1c2ccccc2C(=O)N1c1cccc(N2C(=O)c3ccccc3C2=O)n1	-11.9%
CC(C)(C)c1cc2nc3c(c(=O)n2[nH]1)CN(Cc1ccccc1)C3=O	15.8%
CC(C)CCNC(=O)NC(=O)COC(=O)C1CCN(S(=O)(=O)c2ccccc2F)CC1	7.4%
CN(C)CCOc1ccc(-c2c(-c3ccccc3)sc3ccccc23)cc1	7.8%
CNC(=O)COC(=O)c1ccc(Cl)c(S(=O)(=O)N2CCCC2)c1	-1.7%

Continued:
Molecule	VDR inh
Cc1c(C(=O)Nc2nc3ccccc3[nH]2)oc2c(Cl)cccc12	-5.6%
CN(C)c1ccc(/C=N/NC(=O)C(O)(c2ccccc2)c2ccccc2)o1	u
O=C(CSc1nc2ccc(NC(=O)c3ccccc3C(=O)O)cc2s1)Nc1ccc(F)c([N+](=O)[O-])c1	-10.3%
Cc1ccc(N2C(=O)CC(NNC(=O)c3cccc(S(=O)(=O)N4CCCC4)c3)C2=O)cc1 (stereo not drawn)	-12.5%
COc1cc2c(cc1OC)C(=S)NC1(CCCC1)C2	-10.9%
Cc1cccc(-c2cccc(NC(=O)C3CCCN(C(=O)c4csc(C)n4)C3)c2)c1 (stereo not drawn)	-8.8%
Cc1cccc(-n2c(CNC(=O)c3cccc([N+](=O)[O-])c3C)n[nH]c2=S)c1	-19.0%
Cc1c(NC(=O)c2c(F)c(F)c(F)c(F)c2F)c(=O)n(-c2ccccc2)n1C	-0.3%
COC(C(=O)Nc1ccnn1C1CCN(Cc2cnn(C)c2)CC1)c1ccccc1 (stereo not drawn)	-11.8%
CN(CCc1ccccn1)C(=O)CC1C(=O)NCCN1Cc1ccc(-c2ccccc2)cc1 (stereo not drawn)	9.2%
Cc1ccccc1OCC(=O)Nc1nnc(C2CC2)s1	12.5%
CC(C)CNC(=S)NNC(=O)c1csc2ccccc12	-6.7%
CCN(CC)S(=O)(=O)c1ccc(N2CCOCC2)c(NS(=O)(=O)c2cc(C(C)(C)C)ccc2C)c1	u
COc1ncc2nc(-c3cccs3)c(=O)n(C)c2n1	-8.6%
COc1ccc(S(=O)(=O)N(CC(=O)Nc2cccc(C)c2)c2ccc(C)cc2)cc1OC	30.8%[activator]
CCOC(=O)c1sc(=S)n(-c2ccc(C)cc2)c1N	u
CC(NC(=O)c1ccc(=O)oc1)c1ccccc1 (stereo not drawn)	-1.9%
Cc1ccc(C2CC(=O)n3nc(-c4ccc(Cl)cc4)nc3S2)cc1 (stereo not drawn)	-15.1%
O=C(CCCCl)NC(=S)Nc1cc(C(F)(F)F)ccc1N1CCOCC1	-6.8%
CCOC(=O)c1ccc(NC(=O)C2=C(C)C(=O)OC23CCCCCC3)cc1	12.3%
CCCCc1cc(=O)oc2cc(C)cc(OCC(=O)N3C[C@H]4C[C@@H](C3)c3cccc(=O)n3C4)c12	-13.7%
Nc1ncnc2c1nc(N1CCCCC1)n2[C@@H]1O[C@@H]2COP(=O)(O)O[C@H]2[C@H]1O	17.7%
COc1ccc(N2CCN(CCOc3ccc4c(C)cc(=O)oc4c3)CC2)cc1	1.3%
Nc1nc(Nc2ccc(Cl)cc2)nc(NCCO)c1[N+](=O)[O-]	6.2%
COc1ccc(C)cc1NC(=O)C(OC(=O)Cn1cnc2c1c(=O)n(C)c(=O)n2C)c1ccccc1 (stereo not drawn)	2.3%
CCCCC/C=C\C/C=C\C/C=C\C/C=C\CCCCCC(=O)NCCCC(=O)O	-5.7%
Cc1ccc(S(=O)(=O)N2CCOCC2)cc1NC(=O)COC(=O)c1cnc(Cl)c(Cl)c1	-18.4%
Cc1ccc(N(C(=O)c2csnn2)C(C(=O)NCc2ccccc2)c2cccnc2)cc1 (stereo not drawn)	-14.8%
COc1cccc(CNC(=O)Cc2c(C)c3cc4c(C)coc4cc3oc2=O)c1	-1.6%
COc1ccc(-c2[nH]ncc2CN(C)CCN2CCOCC2)cc1F	8.7%
